Mtb bLac sens – beta-lactam sensitization of Mtb H37Rv. hit rate 0.27% among 330,000. AID 434955. M. tuberculosis H37Rv growth with meropenem, percent inhibition; hits of this screen are not shown here. inhibition, % at 25 µM;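 active = about 74% or more and at least 40 points above the plate without the antibiotic, then above 30% in a dose series; inconclusive = first-round hits that could not be retested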;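 note: growth measured after seven days incubation then overnight dye step; 0% = bacteria only wells and 100% = bacteria with antibiotic; twin plates without the antibiotic show which effects depend on it; some results filed as inactive read as strong as hits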
Numbers without * were called inactive; ? = inconclusive. The list is partial; count on the stated rates, not on these rows.

Compound	Mtb bLac sens
COC(=O)[C@]1(Cc2ccccc2)N[C@H](CN(C)C(=O)c2ccccc2)[C@@H]2C(=O)N(Cc3ccccc3)C(=O)[C@@H]21	-1.3
CC(=O)Nc1ccc(NC(=O)C(C)OC(=O)[C@@H]2CCCN2C(=O)c2cccs2)cc1 (stereo not given in full)	0.1
CC(OC(=O)C1=NN(c2ccccc2)C(=O)CC1)C(=O)NC1CCCCC1C (stereo not given)	5.4
COc1ccccc1C(=O)COC(=O)c1cccs1	5.0
COc1cc(C(=O)NCC(=O)OCc2ccc(F)cc2)cc(OC)c1OC	-7.3
Cc1ccc(O)c(N)c1	-8.2
CC(C)n1ncc2c(C(=O)Nc3cccc(C#N)c3)cc(C3CC3)nc21	63.2
COc1ccc(NC(=O)CNc2cc(S(=O)(=O)N3CCOCC3)ccc2N2CCOCC2)c(OC)c1	-3.0
COc1cc(OC)cc(C(=O)OCC(=O)NC2CCCCCC2)c1	11.1
CC(C)N(C(=O)[C@H]1CC(CC(=O)NCCC2=CCCCC2)C(=O)N2CCc3c([nH]c4ccccc34)[C@]12C)C(C)C (stereo not given in full)	7.5
Cc1cc(NC(=O)CCC(=O)N(CC(=O)NCC2CCCO2)c2ccc(F)c(Cl)c2)no1 (stereo not given)	-3.5
O=C(COC(=O)CN1C(=O)NC2(CCCCC2)C1=O)Nc1cc(F)ccc1F	-6.5
Cc1ccc(CNC(=O)c2ccc(NS(=O)(=O)c3cccs3)cc2)cc1	-6.7
O=C(COC(=O)/C=C/c1ccc(Cl)cc1)Nc1cccc(S(=O)(=O)NC2=NCCCCC2)c1	0.6
OCC(CBr)(CBr)CBr	0.7
CCCn1c(N)c(C(=O)CN2CCN(S(=O)(=O)c3cccc(Cl)c3)CC2)c(=O)[nH]c1=O	4.0
O=C1CN(S(=O)(=O)c2cc(Br)ccc2Br)CCN1	-4.8
O=C(Nc1ccc(F)c(Cl)c1)C1CCCCC1	-2.9
COc1cccc(OC)c1C(=O)OCC(=O)N(c1ccccc1)C1CCCCC1	4.3
CC(=O)Nc1ccc(NC(=O)C(C)OC(=O)c2c(NC(C)=O)sc(C)c2C)cc1 (stereo not given)	0.0

The listing continues:
Compound	Mtb bLac sens
CC(=O)Nc1cccc(NC(=O)CSc2n[nH]c(-c3ccccc3)n2)c1	-4.8
CC1CCCN(S(=O)(=O)c2ccc(NC(=O)C3CC(=O)N(c4ccccc4)C3)cc2)C1 (stereo not given)	-32.0
COCc1cc(C)nc(SCC(=O)NCC2CCCO2)c1C#N (stereo not given)	3.4
CCOc1ccc(/C=N/NC(=O)c2ccccc2Cl)cc1CN1CC2CC(C1)c1cccc(=O)n1C2 (stereo not given)	32.2
COc1cccc(-c2sc3ccc(OC)cc3c2-c2ccc(OC)cc2F)c1	5.8
COc1ccccc1C1=CC(=O)CC(C)(C)C1=O	10.8
O=C(Cc1ccccc1)Nc1ncnc2c1C(c1ccccc1)c1c(ccc3ccccc13)O2 (stereo not given)	-2.2
CC1CCCC(NC(=O)c2cccc(S(=O)(=O)NCc3ccccc3)c2)C1C (stereo not given)	-9.8
Cc1cccc(N2CCN(CC(=O)N(C3CCCC3)C3CCS(=O)(=O)C3)CC2)c1C (stereo not given)	-0.9
COc1ccccc1CNC(=O)c1cccc(S(=O)(=O)N2CCN(c3ccc(F)cc3)CC2)c1	-7.4
CSCCC(NC(=O)c1ccco1)C(=O)NC1CCC(C)CC1 (stereo not given)	4.3
CC(C)CN1C(=O)C(=O)N(CC(=O)N(C)CC(=O)Nc2ccc(F)cc2)C1=O	-4.8
CC1(c2ccccc2Br)NC(=O)N(CC(=O)N2CCc3ccccc3C2)C1=O (stereo not given)	-7.7
CN(CC(=O)Nc1ccc(OC(F)(F)F)cc1)C(=O)Cc1ccc2c(c1)CCC2	-3.4
CC1CCCC(NC(=O)COC(=O)COc2ccc(Br)cc2)C1C (stereo not given)	3.7
CC(OC(=O)CN1C(=O)NC2(CCCCC2C)C1=O)c1ccccc1 (stereo not given)	10.7
CS(=O)(=O)c1ccc(NC(=O)CCN2C(=O)NC3(CCCC3)C2=O)cc1	-1.7
O=C(CNC(=O)Cc1cccc2ccccc12)NCc1ccc(F)cc1	-3.4
CNC(=O)c1[nH]cnc1C(=O)Nc1ccccc1	80.1
CCCCN(C(=O)c1ccc(C)cc1)c1c(N)n(CCC)c(=O)[nH]c1=O	2.3

Overlap with the part before: six entries, then new ones.
Compound	Mtb bLac sens
CC1CCCC(NC(=O)COC(=O)COc2ccc(Br)cc2)C1C (stereo not given)	3.7
CC(OC(=O)CN1C(=O)NC2(CCCCC2C)C1=O)c1ccccc1 (stereo not given)	10.7
CS(=O)(=O)c1ccc(NC(=O)CCN2C(=O)NC3(CCCC3)C2=O)cc1	-1.7
O=C(CNC(=O)Cc1cccc2ccccc12)NCc1ccc(F)cc1	-3.4
CNC(=O)c1[nH]cnc1C(=O)Nc1ccccc1	80.1
CCCCN(C(=O)c1ccc(C)cc1)c1c(N)n(CCC)c(=O)[nH]c1=O	2.3
O=C(NNc1c(F)c(F)cc(F)c1F)C1CCN(S(=O)(=O)c2ccccc2F)CC1	2.9
COc1ccc2c(-c3cnc(N4CCOCC4)nc3)c(-c3ccc(S(C)(=O)=O)cc3)sc2c1	1.8
CCOc1c2ccccc2nn1CCOC	-6.3
CC(C)(C)OC(=O)C[C@H]1C/C=C\C[C@H](CC(=O)N[C@H](CO)Cc2ccccc2)C(=O)N[C@H](Cc2ccccc2)COC1=O	4.0
COc1ccc(OCC(=O)OCC(=O)Nc2cc(S(=O)(=O)N3CCOCC3)ccc2Cl)cc1	0.3
Cc1cc(=O)[nH]c(SCC(=O)Nc2c(C)n(C)n(-c3ccccc3)c2=O)n1	4.8
O=C1OC(=O)c2c(Br)c(Br)c(Br)c(Br)c21	15.4
CN(CC(=O)Nc1ccccc1Cl)CC(=O)c1c(N)n(Cc2ccccc2)c(=O)n(C)c1=O	-2.6
Cn1c(N)c(C(=O)COC(=O)Cc2ccc(Br)cc2)c(=O)n(C)c1=O	-4.7
COC(=O)[C@]1(Cc2ccccc2)N[C@H](CN(C)C(=O)C2CCCCC2)[C@@H]2C(=O)N(C)C(=O)[C@@H]21	6.0
COc1cc(C(=O)OCc2cccc(OC)c2OC)ccc1OCC(=O)N1CCOCC1	3.3
O=C(Cn1ncc(Cl)c(Cl)c1=O)NC(=O)NC1CCCCC1	93.5
CN(C(=O)COC(=O)c1cccnc1Cl)C1CCCCC1	-1.8
Cc1ccc(CNC(=O)c2cccc3c2C(=O)c2ccc(N4CCC(C)CC4)cc2S3(=O)=O)cc1	-3.0
CC(NS(=O)(=O)c1ccc2ccccc2c1)c1ccccn1 (stereo not given)	-3.2
CCN(C[C@H]1N[C@@](CC)(C(=O)OC)[C@H]2C(=O)N(Cc3ccccc3)C(=O)[C@@H]12)C(=O)Nc1ccc(OC)cc1	0.7
C=CCC[C@H](Cc1ccc(F)cc1)C(=O)OC[C@H](Cc1c[nH]c2ccccc12)NC(=O)[C@@H](CC=C)CC(=O)NCCO	4.0
CCN(CC)S(=O)(=O)c1ccc(N2CCOCC2)c(NC(=O)COc2ccccc2C)c1	3.2
O=C1OC(=O)C2C3CCC(O3)C12 (stereo not given)	-6.6
O=C(Nc1cccc(S(=O)(=O)NC2=NCCC2)c1)c1ccc(OC(F)F)cc1	4.5

Later entries:
Compound	Mtb bLac sens
Cc1ccc(C(=O)c2ccccc2C(=O)OCC(=O)N2CCCC2)cc1	-1.6
O=C(NNC(=S)Nc1ccc(Cl)cc1Cl)c1cccnc1	-2.2
CC1Sc2ccc(C(=O)NCc3cccc(C(F)(F)F)c3)cc2NC1=O (stereo not given)	-8.1
CC(=O)O[C@H]1[C@H]2O[C@]23[C@@H]2CC[C@]4(O)C[C@@H](O)CC[C@]4(C)C2CC[C@]3(C)[C@H]1c1ccc(=O)oc1 (stereo not given in full)	0.4
CC(=O)Nc1ccccc1C	7.0
O=C(NC(=S)NCc1ccccc1Cl)c1cccs1	0.8
Cc1cc(NC(=O)COC(=O)c2cnccn2)ccc1Br	-0.7
COc1ccc(C(CNC(=O)c2ccc(OCc3c(C)noc3C)cc2)N2CCCC2)cc1 (stereo not given)	-3.9
c1cncc(CNc2ncnc3ccc(-c4ccc5c(c4)OCCO5)cc23)c1	7.8
CC1CCC2(CC1)NC(=O)N(CC(=O)N1CCN(c3ccccc3)CC1)C2=O (stereo not given)	-2.6
Cc1ccc(SCC(=O)OCC(=O)NCc2ccco2)cc1	-0.8
CCCN(CC(=O)Nc1ccccc1OC)C(=O)CCC(=O)c1ccc(OCC)cc1	-1.1
Cc1ccccc1-c1cc(C(=O)NCc2cccc(C(F)(F)F)c2)nn1CC1CC(c2cccc([N+](=O)[O-])c2)=NO1 (stereo not given)	-8.3
CC(C)(C)OC(=O)NCCOC(=O)c1[nH]cnc1C(=O)NCc1ccccc1	-1.5
C=CC[C@@H](CC(=O)N[C@H](CO)Cc1ccccc1)C(=O)N[C@@H](COC(=O)[C@@H](CC=C)CC(=O)OC(C)(C)C)Cc1ccccc1	-6.7
COc1ccccc1/C=N/Nc1cc(C)nc2ccc(C)cc12	-9.0
CC1(NS(=O)(=O)c2ccc(Cl)s2)CCS(=O)(=O)C1 (stereo not given)	0.2
Cc1cccc(C)c1NC(=O)CSc1nc2[nH]c(=O)cc(O)c2s1	-0.7
COc1ccc(-n2nc(C(=O)NCC(=O)NCCCN3CCOCC3)c3ccccc3c2=O)cc1OC	-7.5
COc1cc(/C=C/C(=O)OCC(=O)NCCC2=CCCCC2)cc(OC)c1OC	-4.4

Additional compounds follow.
molecule | Mtb bLac sens
COc1ccc(SCCN2CC[C@@H](O)CCC2=O)cc1 | 4.2
COc1cccc(CNC(=O)c2ccc(NC(=O)CC3SC(N4CCCCC4)=NC3=O)cc2)c1 (stereo not given) | -8.2
CCOC(=O)c1ccc(S(=O)(=O)N2CCN(C(=O)c3ccccn3)CC2)cc1 | 0.4
CC(C)(C)OC(=O)C[C@H]1C/C=C\C[C@@H](CC(=O)N(CCO)Cc2ccccc2)C(=O)N[C@H](C(C)(C)C)COC1=O | 0.3
O=C1c2ccccc2NC(c2ccc(-c3cccs3)o2)N1O (stereo not given) | -1.1
COc1ccc(C(=O)N(C)Cc2ccon2)cc1OC1CCN(C(C)C)CC1 | ?
Cc1nn(CC(=O)OCC(=O)Nc2cccc(S(N)(=O)=O)c2)c(C)c1[N+](=O)[O-] | -7.0
COc1ccc(N(CC(=O)NCCSC2CCCCC2)S(=O)(=O)c2ccccc2)c(OC)c1 | ?
CCOc1ncccc1C(=O)N1CCN(S(=O)(=O)c2ccc3c(c2)OCCO3)CC1 | 4.8
O=C(NCCCN1CCCC1=O)C1CCN(S(=O)(=O)c2ccc(Cl)cc2)CC1 | -2.2
Cc1ccc(OCCNC(=O)CCNC(=O)c2ccc(Cl)cc2)cc1 | -0.7
COc1ccc(N(CC(=O)NCCSc2ccccn2)S(=O)(=O)c2ccc(C)cc2)cc1OC | -5.6
O=C(OCC(=O)N1CCCCCC1)c1ccccc1Br | -2.2
CCOc1cc(/C=C(\C(=O)O)c2ccc(S(=O)(=O)N3CCCC3)s2)ccc1OC | -3.9
O=C(CC(NC(=O)c1ccccc1)c1ccccc1)NCc1ccccc1 (stereo not given) | -2.5
O=C(CNC(=O)c1ccccc1)NCC(c1ccco1)N1CCCC1 (stereo not given) | -1.3
O=C(NCC(=O)N1CCN(C/C=C/c2ccccc2)CC1)c1ccc(OC(F)F)cc1 | 2.9
O=C(COc1ccc(Cl)cc1Br)NC1CC1 | 0.2
Cc1cc(C)c(C#N)c(SCC(=O)Nc2c(C)n(C)n(-c3ccccc3)c2=O)n1 | -2.2
Cc1cc(C)c(C)c(S(=O)(=O)Nc2ccccc2N2CCOCC2)c1C | 3.7
CCC1(c2ccc(F)cc2)NC(=O)N(CC(=O)Nc2ccc(N3CCCCC3)cc2)C1=O (stereo not given) | -3.0
CCC(=O)c1ccc(OCC(O)CN2CCN(c3ccccn3)CC2)cc1 (stereo not given) | -0.2
CC1CC(=O)Nc2ccccc2N1C(=O)Cn1cnc2ccccc2c1=O (stereo not given) | 0.4
NC(=O)c1cc([N+](=O)[O-])ccc1Nc1ccccc1 | -9.8
N#CCCCc1cc2cc(F)ccc2cn1 | -5.5

Other compounds
molecule | Mtb bLac sens
CSCCC(NC(=O)COc1ccccc1)C(=O)N1CCOCC1 (stereo not given) | 5.0
Cc1ccc(C(=O)c2c3ccccc3[n+]([O-])n2CCC(=O)O)cc1 | 1.4
CN(CC(=O)OCC(=O)NC1CCCC1)S(=O)(=O)c1ccc(Cl)cc1 | -8.6
O=C(NCCCN1CCOCC1)c1cn(-c2ccccc2)nc1-c1ccc(Br)cc1 | 6.7
CCCSc1nnc(NC(=O)CSc2nc3[nH]c(=O)cc(O)c3s2)s1 | -19.0
O=C1CCC/C=C\C[C@H](CC(=O)N(CCO)Cc2ccccc2)C(=O)N2CCC[C@@H]2CO1 | 9.5
O=C(CSc1nc(NS(=O)(=O)c2ccccc2)cc(=O)[nH]1)Nc1ccccc1C(F)(F)F | 8.0
CC(=O)Nc1ccc(C(=O)COC(=O)Cc2ccsc2)c(F)c1 | -2.9
COc1cc(CC(=O)OCC(=O)NC2CCCC2)cc(OC)c1OC | 0.4
NC(=O)NC(CC(=O)NNC(=O)c1ccccn1)c1ccc(Cl)cc1 (stereo not given) | -2.3
FC(F)(F)c1ccccc1-n1c(-c2ccco2)n[nH]c1=S | -7.4
C#CCOCCOCCOCCNc1nc(N2CCN(C(=O)CCCCCCCCCCNC(=O)[C@H]([C@@H](C)CC)n3cc(CCCCCN)nn3)CC2)nc(N2CCN(C(=O)CCCCCCCCCCNC(=O)[C@H](CO)n3cc(CCCCCN)nn3)CC2)n1 | 92.0
Cn1cnc(C(=O)N2CCN(c3ccccc3)CC2)c1C(=O)N1CCN(c2ccccc2)CC1 | 8.4
Cc1ccc(NC(=S)NC(=O)C2CC2)c(C)c1 | 5.8

Nothing new here: entries from further up.
molecule | Mtb bLac sens
CSCCC(NC(=O)COc1ccccc1)C(=O)N1CCOCC1 (stereo not given) | 5.0
Cc1ccc(C(=O)c2c3ccccc3[n+]([O-])n2CCC(=O)O)cc1 | 1.4
